TRPML1 ag = agonists of human TRPML1 channel; activation, % (concentration not given with the values); 0.12% of 410,000 active; TRPML1-expressing cells, Ca2+ dye fluorescence, FDSS; host cell line not named in the record; reference of the full effect not given here; in the data active = activation above about 50%; inconclusive = about 30% to 50%; inactive = below about 30%; also: 0% is about no effect; the text of the record puts the active cut at 80%
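Tet-induced TRPML1-DL cells, 1,500 per well, cultured overnight, were loaded with a no-wash Ca2+ dye for 45–90 min. Calcium fluorescence was recorded on the FDSS for 110 s after compound addition, before the EC80 agonist (4 uM 54-4) was added.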
Menin-MLL FL inh = displaces fluorescein MLL peptide from human menin; FP activity change, % at 61.4 µM; 290,000 tested, under 10 active; Fluorescence polarization, fluorescein-MLL peptide displacement from menin; inconclusive = falling polarisation curve, or a change in total fluorescence; inactive = total fluorescence flat and polarisation flat or rising; no compound was filed as active; the % refers to the polarisation; negative = inhibition;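 also: % of control where 0% means no effect; inhibitors lower the polarisation; unlabelled MLL peptide was the positive control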
Sfp PPTase inh = Sfp phosphopantetheinyl transferase inhibition; Q9F4F7; Biochemical Sfp PPTase activity, qHTS; Potency, µM, without a hit: max response, negative = inhibition, most hits filed as inhibitors; 3.5% of 310,000 active; active = well fitted inhibition curve with a large enough effect; inconclusive = small, poorly fitted or top-dose-only effect, or another doubt; inactive = no such curve, though single readings can be large or run the other way;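 also: the enzyme is Sfp with the accession as filed and its product quenches rhodamine fluorescence; potency is read from the fitted curve at half-maximal effect; 0% = enzyme reaction without inhibitor and -100% = no enzyme wells; top concentration of the series not given in the record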
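Fluorescence-quenching assay with 15 nM Sfp, 5 uM rhodamine-CoA and 12.5 uM BHQ-2-labelled ybbR peptide in pH 7.6 Hepes/MgCl2 buffer. Enzyme was pre-incubated with compound for 15 min at room temperature. Rate was taken from the 30-min fluorescence change (525/598 nm).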
ClpP mod = qHTS Assay for Activators of ClpP; ATP-dependent Clp protease proteolytic subunit (Bacillus subtilis (strain 168)), P80244; purified B. subtilis ClpP, FRET peptide cleavage, 20 min; 1.9% of 340,000 active; Potency, µM (titrated, usually from 57.5 µM), without a hit: at the top dose activity change, negative = active; AID 651965, 2013; active = well fitted falling curve with a large enough effect; inconclusive = small, poorly fitted or top-dose-only effect; inactive = no such curve, though single readings can be large or run the other way; also: potency is read from the fitted curve at half-maximal effect; the source files actives as falling curves though it sought activators and does not explain the sign; nearly all actives have a fitted effect of over 65% in size; many hits overshoot -100%
Target sequence (P80244 whole entry, looked up): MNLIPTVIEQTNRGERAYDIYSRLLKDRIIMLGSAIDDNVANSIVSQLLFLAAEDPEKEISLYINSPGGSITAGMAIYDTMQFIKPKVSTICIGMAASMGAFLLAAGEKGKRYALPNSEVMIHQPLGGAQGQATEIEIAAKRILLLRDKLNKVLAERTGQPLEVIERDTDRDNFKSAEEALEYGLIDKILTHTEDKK
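Buffer: 100 mM Tris/HCl pH8, 100 mM KCl, 0.05% low protease BSA, 2.5% glycerol, 0.01% Tween-20. ClpP 10 microg/mL final; 20 min RT; delta FRET normalized to ADEP and DMSO controls.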
TRPV1 potentiator = potentiators of human vanilloid receptor 1 (TRPV1). potentiation, % at 8.33 µM. 0.02% of 320,000 active. TRPV1-expressing cells, Fluo-8 calcium influx, capsaicin EC20 potentiation; host cell line not named in the record; control for the full effect not named in the record; active means potentiation above 80%; inconclusive means 30% to 80%; inactive means below 30%; also: 0% is about no effect
Target sequence (Q8NER1 whole entry, looked up): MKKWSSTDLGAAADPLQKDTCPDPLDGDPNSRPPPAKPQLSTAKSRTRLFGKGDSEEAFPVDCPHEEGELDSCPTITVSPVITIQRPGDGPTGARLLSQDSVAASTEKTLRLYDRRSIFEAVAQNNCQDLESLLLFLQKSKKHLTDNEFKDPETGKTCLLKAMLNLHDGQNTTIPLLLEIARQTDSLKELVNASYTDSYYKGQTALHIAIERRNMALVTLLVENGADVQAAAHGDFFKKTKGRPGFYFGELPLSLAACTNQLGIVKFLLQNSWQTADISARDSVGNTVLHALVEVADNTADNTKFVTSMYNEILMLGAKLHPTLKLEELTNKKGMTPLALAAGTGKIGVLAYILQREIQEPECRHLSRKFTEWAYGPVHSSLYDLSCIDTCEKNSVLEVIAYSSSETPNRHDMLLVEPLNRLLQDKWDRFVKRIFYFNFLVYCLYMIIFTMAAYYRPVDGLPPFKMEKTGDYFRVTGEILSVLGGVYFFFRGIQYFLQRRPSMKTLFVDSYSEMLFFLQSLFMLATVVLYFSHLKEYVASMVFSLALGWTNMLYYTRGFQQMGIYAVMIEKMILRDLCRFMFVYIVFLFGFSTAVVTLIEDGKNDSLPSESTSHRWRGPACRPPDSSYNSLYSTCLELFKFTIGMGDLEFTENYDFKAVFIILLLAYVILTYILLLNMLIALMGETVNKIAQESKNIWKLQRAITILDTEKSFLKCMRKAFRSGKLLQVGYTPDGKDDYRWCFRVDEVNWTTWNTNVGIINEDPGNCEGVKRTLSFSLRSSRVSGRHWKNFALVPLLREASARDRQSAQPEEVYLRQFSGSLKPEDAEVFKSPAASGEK
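TRPV1-expressing cells were cultured overnight at 35.5C and loaded with Fluo-8 calcium dye for 40 to 90 min at room temperature. After a 10 s baseline, compound was added and calcium influx was read kinetically for 3 min (ex 480/em 520 nm).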
PINK1 expr mod = PINK1 expression modulation; PINK1 immunofluorescence, high-content cytometry, 24 h; Potency, µM (highest dose often 76.6 µM), without a hit: at the top dose activation (PINK1 increase), usual class: activators; 0.2% of 410,000 active; active = well fitted activation curve with a large enough effect; inconclusive = small, poorly fitted or top-dose-only effect; inactive = flat fitted curve, though single readings scatter; cell line not stated here;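 also: potency is read from the fitted curve at half-maximal effect; % of control where 0% means no effect; nearly all actives have a fitted effect of over 65% in size; a mitochondrial uncoupler was the plate control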
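Stable cell line treated 24 h with compounds at 5 concentrations (CCCP controls), then fixed and immunostained for PINK1 plus nuclear and cell stains; PINK1 immunofluorescence quantified by laser-scanning microplate cytometry.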
TRPML1 inh = inhibitors of human TRPML1 channel. Q9GZU1. TRPML1-inducible cells, Ca2+ dye fluorescence, FDSS; hits give low values; inhibition of EC80 agonist-evoked calcium signal. activity change, negative = inhibition, % (test concentration not listed). 0.02% of 390,000 active. AID 624415; in the data active means activity change below about -50%; inconclusive means about -30% to -50%; inactive means above about -30%;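 also: stimulus is agonist 54-4 at its EC80 concentration; % is scaled to controls: 0 for no effect and ±100 for the full control effect; compound concentration not given in the record; the text of the record puts the active cut at -80%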
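Tet-induced TRPML1-DL cells loaded with Ca8 no-wash calcium dye were read kinetically on FDSS. Compound addition was followed by EC80 agonist 54-4 (4 uM final); inhibition was read over 110 s.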
The depositor's hits bear a star; ? = inconclusive; nt = not tested or not shown; & = joins results of further samples; [ ] = another dose, or the depositor's remark.

A first look (2 entries):
SMILES	TRPML1 ag	Menin-MLL FL inh	Sfp PPTase inh	ClpP mod	TRPV1 potentiator	PINK1 expr mod	TRPML1 inh
CC(=O)c1ccc(S(=O)(=O)Nc2c(C)nn(C)c2C)cc1	0.2	nt	nt	nt	-3	1.7%	15
CCC1CCCCN1CCCNC(=O)CSc1nc2nc(C)c(Cc3ccc(C)cc3)c(C)n2n1 (configuration not stated)	-0.1	-6.1	1%	nt	-5	-1.1%	9

All compounds of this part, previewed entries included:
SMILES	TRPML1 ag	Menin-MLL FL inh	Sfp PPTase inh	ClpP mod	TRPV1 potentiator	PINK1 expr mod	TRPML1 inh
CC(=O)c1ccc(S(=O)(=O)Nc2c(C)nn(C)c2C)cc1	0.2	nt	nt	nt	-3	1.7%	15
CCC1CCCCN1CCCNC(=O)CSc1nc2nc(C)c(Cc3ccc(C)cc3)c(C)n2n1 (configuration not stated)	-0.1	-6.1	1%	nt	-5	-1.1%	9
Cc1ccc(OCCSc2nc3ccc(NC(=O)COc4ccc(F)cc4)cc3s2)cc1	-0.1	nt	nt	-0.8%	nt	7.2%	-5
CCn1cc(/C=C(\NC(=O)c2ccccc2F)C(=O)NCCCn2ccnc2)c2ccccc21	2.1	-1.5	13%	2.7%	-7	-1.3%	2
O=C(/C=C/c1ccccc1[N+](=O)[O-])NCCc1ccc(F)cc1	1.4	-1.1	-12%	0.2%	2	0.0%	-6
Cc1ccc(OCCCCNC2CCCC(C)C2C)c(C)c1 (configuration not stated)	-0.2	3.0	?	nt	10	?	9
COCCNc1nc(-c2ccccc2CO)c2sc(-c3ccccc3)cc2n1	-0.2	nt	nt	4.8%	nt	5.0%	nt
N#Cc1ccccc1OCC(=O)Nc1ccc2c(c1)OCCCO2	0.5	-0.2	-15%	nt	?	1.5%	15
CCOC(=O)c1cc(-c2ccc(F)cc2)n(CCC(=O)NCCc2ccc(C)cc2)c1C	3.5	nt	nt	-6.9%	nt	-0.1%	64
CC1CCN(C(=O)CN2C(=O)NC(C)(c3ccc4ccccc4c3)C2=O)CC1 (configuration not stated)	-0.2	nt	nt	-1.3%	nt	1.1%	0
COc1cc2nc(SCc3ccc(Cl)cc3)n3nc(CCn4nc(C)cc4C)nc3c2cc1OC	-0.2	nt	nt	-2.0%	nt	-0.2%	1
Cc1ccn2c(CN3CCOCC3)c(-c3ccccc3)nc2c1	-0.8	0.0	-3%	?	6	-2.0%	5
COC(=O)CCC(=O)c1oc2ccccc2c1N	-0.5	-0.4	1%	-11%	3	-0.8%	-15
COCCNC(=O)CCc1c(C)nc2c(-c3ccc(F)cc3)c(C)nn2c1C	-1.0&-0.7	-2.3	0%	-5.1%&0.1%	-20	4.0%&9.2%	7&0
COCCNc1nnc(SCC(=O)NC(=O)c2ccccc2OC)s1	1.1	nt	4%	-12%	-5	1.1%	9
O=C1c2ccccc2C(Nc2ccc(F)c(Cl)c2)N1Cc1ccco1 (configuration not stated)	-0.5	1.3	32µM*	2.0%	-7	8.4%	5
CCC1=C(OC(=O)N(CC)CC)N2C(=O)OC(=NCC(=O)OC)[C@]2(C)[C@H]2C1=CC[C@H]1C(=O)N(C)C(=O)[C@H]12	-0.8	-5.3&-2.3	15%&7%	-2.3%	-21	0.2%	10
Cc1ccccc1-c1nc(CS(=O)CC(=O)NCCN2CCOCC2)c(C)o1 (configuration not stated)	0.2	0.8	-8%	-2.3%	9	2.7%	10
CN(Cc1ccc(C(C)(C)C)cc1)C(=O)C1CSC2(C)CCC(=O)N12 (configuration not stated)	-0.5	nt	nt	3.0%	-9	1.4%	5
O=[N+]([O-])c1ccc(Sc2n[nH]c(-c3ccco3)n2)nc1	-0.4	4.8	-6%	2.3%	-3	-3.0%	-7
CCOc1ccc(-c2c[n+]3c(n2-c2ccccc2)CCCCC3)cc1	0.2	2.1	7%	0.1%	4	?	-10
Cc1nn(-c2ccccc2)c(N)c1Sc1ccccc1[N+](=O)[O-]	0.0	6.1	-4%	-2.7%	-11	0.8%	?
O=S(=O)(Nc1ccc2cn[nH]c2c1)c1ccccc1	-0.7	4.3	15%	nt	14	0.4%	-4
COc1ccc(S(=O)(=O)N2CCOC2CNC(=O)C(=O)NCC(C)C)cc1 (configuration not stated)	1.5	nt	6%	-4.7%	1	?	-1
CN(C)c1cccc(C(=O)NCc2ccccc2)c1	-0.6	0.2	-1%	15%	-24	-0.1%	18
CCN1C(=O)C(CC(=O)Nc2ccc(OC)cc2)N(CCc2ccc(F)cc2)C1=S (configuration not stated)	0.6	-4.8	13%	11µM*	8	?	-4
CN1CCN(c2ccccc2NC(=O)c2sc3ccccc3c2Cl)CC1	0.4	-6.7	9%	nt	-4	1.0%	31
COc1ccc(S(=O)(=O)Nc2cccc(-c3ccc4nncn4n3)c2)c(OC)c1	0.5	nt	nt	nt	1	-1.3%	-8
CCN(CC)CCCNC(=S)N1CCC(c2nc3ccccc3[nH]2)CC1	0.4	-1.4	2%	2.8%	2	-0.3%	17
COc1ccc(-c2nn3c(-c4ccc(C)cc4)nnc3c3ccccc23)cc1	0.6	nt	nt	-8.1%	nt	-0.9%	39
CN(C)S(=O)(=O)c1ccc(Cl)c(C(=O)OCC(=O)c2ccco2)c1	0.7	nt	nt	0.1%	nt	-0.5%	-1
Cc1ccc2oc(=O)cc(CN3CCOCC3)c2c1	0.0	-0.5	5%	-3.5%	4	0.8%	3
CC(=O)c1cccc(NC(=O)C2C3C=CC(C3)C2C(=O)O)c1 (configuration not stated)	3.7	-0.5	-26%	0.7%	8	0.4%	-9
Cc1ccc(C(=O)c2cc3ccccc3o2)cc1	1.9	3.2	-18%	-1.0%	-15	-0.3%	45
O=C(CN(C(=O)CSc1nnc(COc2ccccc2)o1)c1ccc(F)cc1)NC1CCCC1	1.7	4.8	5%	0.5%	-3	29%[38.3 µM]	3
CCOc1ccc(N(CC(=O)NCCc2ccc(Cl)cc2)S(=O)(=O)c2c(C)[nH]c(=O)[nH]c2=O)cc1	-0.4	3.7	16%	nt	?	0.6%	-16
O=C(c1ccco1)N1CCCN(Cc2nc(-c3ccc4c(c3)OCO4)no2)CC1	0.0	5.8	11%	nt	-5	1.6%	0
Cc1ccc(N2CCN(C(=O)c3noc4c3COc3ccc(C)cc3-4)CC2)c(C)c1	1.9	nt	nt	-3.4%	nt	-1.2%	32
O=C(Nc1cccc(Cl)c1)c1nc[nH]c1C(=O)NCCN(CCNC(=O)c1[nH]cnc1C(=O)Nc1cccc(Cl)c1)CCNC(=O)c1[nH]cnc1C(=O)Nc1cccc(Cl)c1	-0.1	nt	nt	-16%	nt	-0.8%	11
Cc1cccc(-c2nc3c(c(SCc4ccccc4Cl)n2)Cc2c(CO)cnc(C)c2O3)c1	1.3	nt	nt	-1.9%	nt	-1.5%	-7
O=c1o[nH]c(-c2ccccc2)c1N=Nc1c(F)cccc1Cl	1.5	-5.0	-6%	1.6%	28	?	-6
Cc1cc(C)c(N2C(=O)CC(Sc3ccccc3N)C2=O)c(C)c1 (configuration not stated)	0.7	nt	nt	0.0%	nt	6.9%	-19
COc1ccc(CCN(Cc2ccccn2)C(=S)Nc2ccccc2C)cc1OC	-0.6	-1.7	-23%	nt	-20	-0.1%	-1
CCOc1ccc(CN2C(=O)C(=O)c3cccc(C)c32)cc1OC	3.6	nt	nt	1.4%	nt	4.5%	25
COC(=O)c1ccc(CSc2nnc(CNC(=O)c3ccccc3F)o2)o1	2.9	-1.3	1%	0.0%	8	-1.4%	-1
CCCCN(CC)Cc1ccc(CNC(=O)Nc2ccccc2)o1	0.5	-1.3	16%	2.3%	-4	9.5%[38.3 µM]	10
COCCN1C=C2C(=O)C(C)(OC(=O)C3CCCC3)C(=O)C(c3ccccc3)=C2C=C1CCCC(=O)OC (configuration not stated)	0.2	-6.3[11.7 µM]	-3%&-14%	-1.1%	1	0.7%	42
COc1ccc(CC(=O)OCC(=O)N(CC(C)C)c2c(N)n(Cc3ccccc3)c(=O)[nH]c2=O)cc1	0.1	nt	nt	1.1%	-12	0.6%	-6
Cc1nc2ccc(NC(=O)c3cccc(S(=O)(=O)N4CCOCC4)c3)cc2s1	0.0	nt	nt	-1.0%	nt	1.2%	-1
CCc1nnc(SC(C)C(=O)Nc2nccs2)n1C (configuration not stated)	0.3	nt	1%	-0.6%	-1	0.8%	17
Going on with the list:
SMILES	TRPML1 ag	Menin-MLL FL inh	Sfp PPTase inh	ClpP mod	TRPV1 potentiator	PINK1 expr mod	TRPML1 inh
Cc1cccc(NC(=O)CNC(=O)COC(=O)CCS(=O)(=O)c2ccccc2)c1C	-0.4	-7.1	16%	-17%	-1	-3.2%	-3
O=C1C2ON(c3ccccc3)C(c3ccncc3)C2C(=O)N1c1ccc(N2CCOCC2)cc1 (configuration not stated)	0.6	-0.6	27%	-2.2%	nt	0.2%	21
COC(=O)c1ccc(CSc2nnc(Nc3ccc(C)cc3)s2)o1	-0.7	3.2	-9%	2.8%	-1	2.8%	11
O=C(c1ccco1)[C@@H]1[C@@H]2C(=O)N(c3ccccc3)C(=O)[C@@H]2C2c3ccccc3C=CN21 (some centres not stated)	3.5	?	?	-4.2%	-1	2.2%[38.3 µM]	-17
Cc1ccc(NC(=O)Nc2nnc(-c3ccncc3)s2)cc1C	-0.4	0.0	13%	-1.6%	-6	16µM*	-8
Cc1ccc(C(c2ccc(C)c(C)c2)C(O)C2OC(=O)C(O)C2O)cc1C (configuration not stated)	0.0	nt	nt	-3.3%	nt	7.6%	34
COc1ccc(N(CC(=O)Nc2cccc(C)c2)S(=O)(=O)c2c(C)n[nH]c2C)cc1	-0.4	2.2	?	-1.8%	7	-5.7%[38.3 µM]	-11
CSc1nsc(/C=C/Nc2ccc(O)cc2C)c1C#N	0.3	?	-78%	-0.8%	22	3.5%	0
NS(=O)(=O)c1ccc(N2CCCCCC2)c([N+](=O)[O-])c1	-0.7	3.7	-13%	nt	11	-0.3%	-14
O=C(N/N=C/c1ccccc1)c1ccc(CN2C(=O)c3cccc4cccc2c34)cc1	0.6	6.1	-14%	-5.2%	1	0.3%	1
Cc1cc(C)n2ncc(C(=O)Nc3ccc4c(c3)OCO4)c2n1	0.3	1.3	14%	-2.2%	4	5.3%	19
CN(C(=O)COC(=O)c1ccc(Cl)c(N)c1)c1ccccc1	0.8	3.2	20%	nt	16	0.0%	21
O=S1(=O)C[C@H](N2CCN(CCO)CC2)[C@@H](COCc2ccccc2)N1	-0.5	nt	nt	2.9%	nt	-0.3%	nt
CC(Oc1ccc(Cl)cc1)c1ccnc(N)n1 (configuration not stated)	1.9	1.8	-6%	nt	-24	-1.5%	12
